# KCNQ2 block = KCNQ2 potassium channel inhibitors, primary screen, cell-based, CHO-K1, FluxOR thallium flux, B-score (AID 2156); 20 min; stronger effect = lower value; only compounds with negative scores are shown here; some inactives read as strong as hits; B-score at 10 µM; 310,000 compounds, 1.1% hits;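 active = fluorescence ratio B-score at most minus 3 library SDs, with starting brightness B-score within 2 library SDs, cut at about -5.5 in these data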
# Target sequence (O88943 whole entry, looked up): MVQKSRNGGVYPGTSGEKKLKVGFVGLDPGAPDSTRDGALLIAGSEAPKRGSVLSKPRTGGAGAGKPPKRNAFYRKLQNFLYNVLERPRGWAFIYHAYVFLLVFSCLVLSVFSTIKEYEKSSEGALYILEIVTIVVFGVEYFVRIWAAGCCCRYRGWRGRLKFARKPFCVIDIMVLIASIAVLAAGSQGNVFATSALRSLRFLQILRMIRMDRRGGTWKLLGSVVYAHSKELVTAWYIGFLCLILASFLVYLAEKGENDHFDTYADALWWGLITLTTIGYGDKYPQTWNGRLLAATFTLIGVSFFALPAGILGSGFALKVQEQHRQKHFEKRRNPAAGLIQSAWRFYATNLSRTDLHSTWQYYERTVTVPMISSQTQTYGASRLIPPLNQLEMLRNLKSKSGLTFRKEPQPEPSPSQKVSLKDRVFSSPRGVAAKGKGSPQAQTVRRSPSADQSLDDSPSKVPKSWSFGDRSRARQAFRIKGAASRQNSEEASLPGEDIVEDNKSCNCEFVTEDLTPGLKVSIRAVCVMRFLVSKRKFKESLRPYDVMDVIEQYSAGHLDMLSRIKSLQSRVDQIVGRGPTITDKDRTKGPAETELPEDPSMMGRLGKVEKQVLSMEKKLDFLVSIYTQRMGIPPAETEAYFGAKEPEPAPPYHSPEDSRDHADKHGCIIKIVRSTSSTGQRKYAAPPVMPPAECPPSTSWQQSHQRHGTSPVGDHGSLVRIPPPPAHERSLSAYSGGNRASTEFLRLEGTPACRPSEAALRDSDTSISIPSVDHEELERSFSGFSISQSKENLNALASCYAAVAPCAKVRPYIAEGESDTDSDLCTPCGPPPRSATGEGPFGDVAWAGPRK
# KCNQ2 block baseline = recorded beside KCNQ2 block, whose call it bears; B-score; measured here: initial fluorescence intensity artifact check;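 brightness before thallium and not channel activity; 0 = typical well and far values either way flag optical interference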
# Numbers without * were called inactive; i = inactive.
Molecule | KCNQ2 block | KCNQ2 block baseline
Cc1ccc(Nc2nc3ccccc3n3cnnc23)c(Cl)c1 | i | 1.8
O=C1c2cccc(OCC(=O)N3CCCc4ccccc43)c2CCN1Cc1ccc(F)cc1 | i | -0.03
N/C(=N\OC(=O)Cc1cccs1)c1ccc([N+](=O)[O-])cc1 | i | -2.1
CCC1C(=O)NCCN1C(=O)c1ccc2nc(Cc3ccc(OC)cc3)oc2c1 (stereo not drawn) | i | -0.46
C(=N\n1cnnc1)/c1ccc(-c2ccccc2)cc1 | i | -1.4
Cc1cccc(NC(=O)c2cc(S(=O)(=O)N3CCCCC3)c[nH]2)c1C | i | -2
Cc1ccc(CSC2=NCCN2C(=O)C2CC2)cc1 | i | -0.76
CC(C)(C)CC(=O)Nc1ccccc1N1CCN(c2ccc(F)cc2)CC1 | i | 0.98
COc1ccc2cc3cc(C(=O)N4CCCCCC4)oc3nc2c1 | i | 0.16
CC(C)Cn1c(-c2cccnc2)nc2c1c(=O)[nH]c(=O)n2CC(C)C | i | -0.11
C/C(=N\N=C(c1ccccc1)c1ccccc1)c1ccco1 | i | 1.4
COc1ccc(OC)c2[nH]c(=O)c(CCNS(=O)(=O)c3ccc(F)cc3)cc12 | i | -0.99

# (more compounds)
Molecule | KCNQ2 block | KCNQ2 block baseline
CCOc1ccccc1N1CCN(CC(O)COc2ccc3c(C)cc(=O)oc3c2)CC1 (stereo not drawn) | i | -0.16
COc1ccc(CN(C(=O)c2ccc(C)cc2)C2CCS(=O)(=O)C2)cc1 (stereo not drawn) | i | 0.51
CC(NC(=O)CN(c1ccccc1F)S(C)(=O)=O)c1ccccc1 (stereo not drawn) | i | 1.9
CCC(CC)NC(=O)Cc1ccccc1OC | i | 0.19
Cc1ccccc1SC1CCN(C(=O)C2CCC(=O)N(C3CC3)C2)CC1 (stereo not drawn) | i | -0.7
CSc1ccccc1NC(=O)CO/N=C(\C)c1cc2ccccc2o1 | i | -0.74
N/C(=N/O)c1cccn1Cc1ccccc1[N+](=O)[O-] | i | -0.06
CCCc1cc(C(=O)OCC(=O)N(CCC)c2c(N)n(Cc3ccccc3)c(=O)[nH]c2=O)sc1C | i | -0.56
Cc1cc(=O)oc2c(C)c(OCC(=O)NCCCN3CCCC3=O)ccc12 | i | 1
CCOC(=O)C1CCN(S(=O)(=O)c2ccc3c(c2)N(C)C(=O)CC(=O)N3C)CC1 | i | -0.24
Cc1ccc(NC(=O)CCCN2C(=O)/C(=C/C=C/c3ccccc3)SC2=S)cc1 | i | -1.3
Cc1cc(NS(=O)(=O)c2ccc(NC(=O)/C=C/c3ccccc3)cc2)no1 | i | -0.01

# Additional structures:
Molecule | KCNQ2 block | KCNQ2 block baseline
Cc1ccc(Cl)cc1N1CCN(C(=O)c2noc(C(C)C)c2[N+](=O)[O-])CC1 | i | -0.8
O=S(=O)(c1ccc(Cl)cc1)N1CCN=C1SCc1ccc(Cl)c(Cl)c1 | i | -1.4
COc1cccc2c1O/C(=N\O)C(C(=O)Nc1cccc(Br)c1)C2 (stereo not drawn) | i | 0.67
O=C1COc2cc(S(=O)(=O)CCC(=O)N3CCCCC3)c(Cl)cc2N1 | i | 1.1
Cc1nn2c(NCCOCCO)c3c(nc2c1-c1ccccc1)CCCC3 | i | -1
COc1ccc(N2CCN(C(=O)CCSCc3ccccc3F)CC2)cc1 | i | -0.27
O=C(NCC1CC1)[C@]1(C(F)(F)F)C[C@H](CCC2CCCCC2)CCCO1 | i | 0.05
COC(=O)c1[nH]c2ccccc2c1NC(=O)CN1CCCc2ccccc21 | i | 0.55
Oc1[nH]c2ccccc2c1N=NC(=S)NCCc1ccccc1 | i | -1.3
Cc1cc(F)ccc1NC(=O)C1CSC2(C)CCC(=O)N12 (stereo not drawn) | i | 0.32
CC(CC(=O)c1cccs1)CC(=O)c1cccs1 | i | 0.66
Cc1nc(NCCc2ccc(O)cc2)c2nnn(Cc3ccccc3)c2n1 | i | -0.92

# Entries of single compounds from above. Order of values: KCNQ2 block	KCNQ2 block baseline
# Results for N/C(=N\OC(=O)Cc1cccs1)c1ccc([N+](=O)[O-])cc1 = i	-2.1
# Results for Cc1cc(=O)oc2c(C)c(OCC(=O)NCCCN3CCCC3=O)ccc12 = i	1
# Results for CCOc1ccccc1N1CCN(CC(O)COc2ccc3c(C)cc(=O)oc3c2)CC1 (stereo not drawn) = i	-0.16
# Results for O=S(=O)(c1ccc(Cl)cc1)N1CCN=C1SCc1ccc(Cl)c(Cl)c1 = i	-1.4

# (more compounds)
Molecule | KCNQ2 block | KCNQ2 block baseline
Cc1coc2c1c(C)cc1oc(=O)c(CC(=O)NCCC(=O)O)c(C)c12 | i | 3.2
Cc1ccc(-n2nnc3c(=O)n(CC(=O)N4CCOCC4)cnc32)cc1 | i | 0.35
COC(=O)N/N=C/c1cn(CC(C)COc2ccccc2)c2ccccc12 (stereo not drawn) | i | -0.73
CC(C)CNS(=O)(=O)c1ccc(CCC(=O)N2CCCC2)cc1 | i | -0.34
Fc1ccccc1CN1CCCCCCC1 | i | -1.1
O=C(NC(=S)Nc1ccccc1C(F)(F)F)c1ccccc1F | i | 1.2
Cc1ccccc1NCc1nc2ccccc2n1C | i | 1.2
CCOc1ccc(N2C(=O)C(CC(=O)Nc3ccc(F)cc3)N(Cc3ccccn3)C2=S)cc1 (stereo not drawn) | i | 0.31
O=c1cc(O)c(-c2cccc(C(F)(F)F)c2)c(Cl)[nH]1 | i | 2.1
CCOc1ccc(C(=O)NC(=S)NCc2cccnc2)cc1 | i | -0.31
Cn1c(SCC(=O)Nc2ccc3[nH]c(=O)[nH]c3c2)nnc1-c1ccc(F)cc1 | i | -1.2
CNS(=O)(=O)c1cc2c3c(cccc3c1)C(=O)NC2=O | i | 0.45

# Next part.
Molecule | KCNQ2 block | KCNQ2 block baseline
Cc1cc(Br)cc(C=Nc2ccc(N3CCOCC3)cc2)c1O | i | 0.15
CCNC(=O)COc1ccc(/C=C2\COc3ccccc3C2=O)cc1OC | i | -2.7
COC(=O)c1ccc(N)nc1 | i | -0.25
CSc1ccc(CCNC(=O)c2cc(C)nn2-c2ccccc2)cc1 | i | 0.17
CCOc1cc(/C=C2\SC(N3CCCCC3)=NC2=O)ccc1O | i | 1.1
CCOC(=O)C1CCN(C(=O)c2cn(CCOC)c(=O)c3c2c2ccccc2n3C)CC1 | i | -0.6
C/C(=N\NC(=O)OC(C)(C)C)c1ccc(-n2ccnc2)cc1 | i | 1.5
Cc1ccc(C(=O)N/C(=C\c2ccc(-c3cccc([N+](=O)[O-])c3)o2)C(=O)NC(C)(C)C)cc1 | i | 0.22
Cn1c(CN2CCN(c3cccc(Cl)c3)CC2)nc2ccccc21 | i | -0.24
C=CCn1c(COc2ccccc2-c2ccccc2)nnc1SCC(=O)NC(=O)NCc1ccco1 | i | 0.44
Cc1ccc(N2C(S)=C(C#N)C(=O)NC2c2ccco2)cc1 (stereo not drawn) | i | -0.14
COc1ccc(-c2nc3ccccc3c(=O)n2CCOc2cccc(C)c2C)cc1 | i | -0.26

# New compounds follow.
Molecule | KCNQ2 block | KCNQ2 block baseline
CC1CC(C)CN(C(=O)c2ccc3c(c2)N(Cc2ccccc2)CCS3)C1 (stereo not drawn) | -6.2* | 1.3*
COC1(OC)N=C(N)C2(C#N)C(c3ccccc3)NC(C)=CC12C#N (stereo not drawn) | i | 0.43
N#CCCCC#Cc1ccc2c(c1)COc1c3ccccc3nn1-2 | i | -0.58
COc1ccc(OC)c(N/C(C)=C/C(=O)c2ccc(C)o2)c1 | i | 0.4
CCCS(=O)(=O)N1CCN=C1SCc1cccc(F)c1 | i | 1.7
C=C(C)c1cccc(C(C)(C)NC(=O)NCc2ccc(OC)c(OC)c2)c1 | i | -1.6
COc1ccc(-c2nc(CS(=O)CC(=O)NCCCN3CC(C)CC(C)C3)c(C)o2)cc1OC (stereo not drawn) | i | 5.2
CC1CCN(c2nc3ccccc3n2CC(=O)c2ccccc2)CC1 | i | -2.4
CN=C(Nc1cc(Cl)ccc1Cl)SC1CC(=O)N(c2ccc(C(=O)OC)cc2)C1=O (stereo not drawn) | i | 0.48
Cc1c(C(=O)NCCSCc2cccc(C(F)(F)F)c2)cnn1-c1ccc(Cl)cc1 | i | 0.49
Cc1ccc(C(=O)NCCc2nnc3ccc(SCC(=O)N4CCCCC4)nn23)cc1 | i | -0.42
N#Cc1nc(-c2ccc(OCc3ccccc3)cc2)oc1NCc1cccnc1 | i | 0.66

# Carrying on.
Molecule | KCNQ2 block | KCNQ2 block baseline
Cc1cc2c(ncn2C)c(NS(=O)(=O)c2ccccc2Cl)c1C | i | 0.28
COc1ccc(CC(=O)NC2CCSc3ccccc32)c(OC)c1 (stereo not drawn) | i | 0.57
Cc1ccc(C)c(NC(=O)c2oc(=O)c3ccccc3c2-c2ccccc2)c1 | i | 0.18
S=c1[nH]nc(C2CCCCC2)n1/N=C/c1c(Cl)cccc1Cl | i | 1.8
COc1ccc(CCC(=O)NNC(=O)Nc2cc(Cl)ccc2C)cc1 | i | -2.4
CCNc1c(NS(=O)(=O)c2ccc([N+](=O)[O-])cc2)c(=O)oc2ccccc12 | i | -1.6
COCCNC(=O)C(=O)NNC(=O)CCc1ccccc1 | i | -1.6
COc1cccc(N2CC(O)Cn3c2nc2c3c(=O)[nH]c(=O)n2C)c1 (stereo not drawn) | i | -0.61
COc1ccc2oc(C(=O)Nc3nc4ccccc4[nH]3)c(C)c2c1 | i | -0.94
N#Cc1ccc(C(=O)Nc2ccc(S(=O)(=O)NC3=NCCCCC3)cc2)cc1 | i | -0.86
O=c1oc2ccc(NS(=O)(=O)c3cccc4cccnc34)cc2s1 | i | 0.6
COc1ccccc1C(CNC(=O)C1CC(=O)N(Cc2ccc(C)cc2)C1)N1CCCC1 (stereo not drawn) | i | 0.39

# (more compounds)
Molecule | KCNQ2 block | KCNQ2 block baseline
c1ccc2nc3c(nc2c1)c1ccccc1n3CCN1CCOCC1 | i | -1.6
COc1cccc(NC(=S)N(CCCN2CCCC2)Cc2cccn2Cc2ccc(Cl)cc2)c1 | i | -0.46
Cc1cc(N2CCOCC2)nc(SCC(=O)OCc2ccccc2)n1 | i | -0.35
CCc1ccc(C(C)NC(=O)C2CCCO2)cc1 (stereo not drawn) | i | -0.08
CCCCCOC(=O)c1ccc(NC(=O)c2ccco2)cc1 | i | 0.05
Cc1nc(Cl)c(C(=O)NCCc2ccccc2)c(C)c1[N+](=O)[O-] | i | 4.2
CCn1c(SCC(=O)NC2CCCCC2)nnc1-c1cc2cccc(OC)c2o1 | i | 1.5
CN1CCN(S(=O)(=O)c2cccc(C(=O)NC3CCCc4ccccc43)c2)CC1 (stereo not drawn) | i | 2.7
Cc1ccc(NC(=O)CN2CCc3ccccc3C2)cc1 | i | -0.1
Cc1cccc(NC(=O)CSc2nnc(CNC(=O)c3ccc(S(=O)(=O)N(C)C)cc3)n2-c2ccccc2)c1 | i | -1.7
COc1cccc(CC(=O)N2CCN(c3ccccc3[N+](=O)[O-])CC2)c1 | i | 2.1
Cc1ccc(C(=O)OCCc2c(C)[nH]n(-c3ccccc3)c2=O)cc1 | i | 0.88

# 4 records drawn at random from those above:
Molecule | KCNQ2 block | KCNQ2 block baseline
CN1CCN(S(=O)(=O)c2cccc(C(=O)NC3CCCc4ccccc43)c2)CC1 (stereo not drawn) | i | 2.7
c1ccc2nc3c(nc2c1)c1ccccc1n3CCN1CCOCC1 | i | -1.6
COc1cccc(NC(=S)N(CCCN2CCCC2)Cc2cccn2Cc2ccc(Cl)cc2)c1 | i | -0.46
CCn1c(SCC(=O)NC2CCCCC2)nnc1-c1cc2cccc(OC)c2o1 | i | 1.5

# Next structures
Molecule | KCNQ2 block | KCNQ2 block baseline
Cc1c(Br)c([N+](=O)[O-])nn1CC(=O)Nc1ccc(Cc2ccncc2)cc1 | i | 0.74
Cc1cc(S(=O)(=O)Nc2ccc(C(=O)NCC(C)(C)N3CCOCC3)cc2)ccc1F | i | 0.66
COC(=O)c1c(-c2ccc(C)cc2)csc1NC(=O)Cc1ccc(OC)c(OC)c1 | -6.8* | -0.67*
N#CCCn1cc(C(=O)Nc2cccc(C(=O)O)c2)c(-c2ccc(Cl)cc2)n1 | i | 0.01
CCN1CCc2c(sc(NC(=O)c3ccc(S(=O)(=O)N4CCOCC4)cc3)c2C(=O)OC)C1 | i | -0.18
Cn1c(=O)c2c(nc(CN3CCN(C(=O)c4ccco4)CC3)n2Cc2ccc(F)cc2)n(C)c1=O | i | -0.15
O=C(CCN=C1NS(=O)(=O)c2ccccc21)OCc1cccc(Cl)c1 | i | 1.1
O=C(NN1C(=O)/C(=C/c2cccs2)SC1=S)c1cccnc1 | i | -1.6
N#Cc1ccccc1CSc1nnc(-c2ccncc2)o1 | i | -0.6
COc1ccc(-c2csc(NC(=O)CSCc3c(C)noc3C)n2)c(OC)c1 | i | -0.39
CCN(CC)S(=O)(=O)c1cccc(NC(=O)c2ccccc2Br)c1 | i | 0.04
CCOc1cc2[nH]c(=S)n(Cc3ccc(C(=O)NCCCOC)cc3)c(=O)c2cc1OCC | i | 0.03

# Other results.
Molecule | KCNQ2 block | KCNQ2 block baseline
CCc1c(O)nc(SCC(=O)Nc2ccccc2OC)[nH]c1=O | i | 1
CCOc1cccc(/C=C/c2ccc3ccccc3n2)c1OC(C)=O | i | -1.7
Cc1ccccc1OCc1nc2ccccc2c(=O)n1/N=C/c1c[nH]c2ccccc12 | i | -0.05
CCOC(=O)c1ccc(NC(=O)N2CC(C)OC(C)C2)cc1 (stereo not drawn) | i | 0.06
CCCC(=O)O/N=C(\c1ccccc1)c1ccncc1 | i | 0.11
CCC(=O)N1CCc2cc(OC)c(OC)cc2C1COc1ccc(C(=O)OC)cc1 (stereo not drawn) | i | 1.9
COc1ccc(OCCNC(=O)/C=C/c2ccccc2)cc1 | i | 0.95
O=C(Nc1cccc(Cl)c1)NC1CC2CCC(C1)N2Cc1ccco1 (stereo not drawn) | i | 1.2
O=C(CNCc1ccccc1Cl)Nc1ccccc1N1CCCCC1 | i | -0.02
CC1=NNC(=O)C1CCC(=O)N/N=C\c1ccc(Cl)c(Cl)c1 (stereo not drawn) | i | 0.57
COc1ccc(-c2cc(=O)oc3cc(OCC(=O)N(C)C4CCS(=O)(=O)C4)ccc23)cc1 (stereo not drawn) | i | -0.48

# This is a subset; the hit share may differ from the screen's.
